D2 potentiator = human D2 receptor positive allosteric modulation; DiscoveRx D2 beta-arrestin cells, luminescence, 90 min; 100% = 57 uM dopamine signal; potentiation, % (no concentration beside the values); P14416; hit rate 0.23% among 360,000; AID 624464; active = potentiation of 50% or more; inconclusive = 30% to 50%; inactive = 30% or less;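 further: compound concentration not given in the record; tested on top of an EC20 dose of dopamine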
Target sequence (P14416 whole entry, looked up): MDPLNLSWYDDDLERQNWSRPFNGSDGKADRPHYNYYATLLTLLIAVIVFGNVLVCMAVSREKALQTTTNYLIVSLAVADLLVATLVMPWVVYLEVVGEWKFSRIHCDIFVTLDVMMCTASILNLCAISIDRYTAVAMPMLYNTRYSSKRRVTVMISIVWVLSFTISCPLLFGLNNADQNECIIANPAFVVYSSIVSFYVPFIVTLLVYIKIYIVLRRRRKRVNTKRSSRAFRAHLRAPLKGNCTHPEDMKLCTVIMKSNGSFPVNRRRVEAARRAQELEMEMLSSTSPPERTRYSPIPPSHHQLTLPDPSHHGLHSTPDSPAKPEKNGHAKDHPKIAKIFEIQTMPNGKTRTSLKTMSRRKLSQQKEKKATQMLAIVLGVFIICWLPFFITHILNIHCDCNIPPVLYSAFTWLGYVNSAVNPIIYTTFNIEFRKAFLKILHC
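PathHunter D2 cells, attached overnight at 37 deg C, received compound in DMSO plus dopamine at EC20 (50 nM final) for 90 min at 37 deg C. Beta-arrestin recruitment was read as luminescence after 1 h with detection reagent at ambient temperature.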
Six1-Eya2 inh = inhibitors of human Six1/Eya2 interaction. Q15475+O00167. AlphaScreen GST-Six1/His-Eya2 binding, biochemical; active compounds read low; control for the full effect not named in the record. activity change, % (test concentration not listed). hit rate 0.56% among 360,000; in the data active = activity change below about -65%; inconclusive = about -30% to -65%; inactive = above about -30%; further: on the % scale 0 is the no-effect control and ±100 the full control effect
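Homogeneous AlphaScreen proximity assay pairing GST-Six1 with His-tagged Eya2 (added as 5X mix: 250 nM and 500 nM) in 50 mM Tris pH 8.0, 300 mM NaCl, 1 mM TCEP. Glutathione donor and nickel acceptor beads; 1 h, 37 °C, dark.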
PINK1 expr mod = modulators of PINK1 expression; PINK1 immunofluorescence, high-content cytometry, 24 h; Potency, µM (top dose mostly 76.6 µM), inactives show top-dose activation (PINK1 increase), usual class: activators; hit rate 0.2% among 410,000; active = well fitted activation curve with a large enough effect; inconclusive = small, poorly fitted or top-dose-only effect; inactive = flat fitted curve, though single readings scatter; cell line not stated here;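 further: potency means the concentration at half of the fitted maximal effect; % of control where 0% means no effect; nearly all actives have a fitted effect of over 65% in size; a mitochondrial uncoupler was the plate control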
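A stable cell line was treated with compounds at 5 concentrations for 24 hours, with CCCP as control. PINK1 levels and mitochondrial localization were measured by immunofluorescence with mitochondrial, cell and nuclear markers after fixation, read by laser-scanning cytometry.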
TRPML1 agonist = human mucolipin-1 channel agonism; Q9GZU1; TRPML1-expressing cells, Ca2+ dye fluorescence, FDSS; host cell line not named in the record; reference of the full effect not given here; activation, % (no concentration beside the values); hit rate 0.12% among 410,000; in the data active = activation above about 50%; inconclusive = about 30% to 50%; inactive = below about 30%; further: 0% is about no effect; the text of the record puts the active cut at 80%
Target sequence (Q9GZU1 whole entry, looked up): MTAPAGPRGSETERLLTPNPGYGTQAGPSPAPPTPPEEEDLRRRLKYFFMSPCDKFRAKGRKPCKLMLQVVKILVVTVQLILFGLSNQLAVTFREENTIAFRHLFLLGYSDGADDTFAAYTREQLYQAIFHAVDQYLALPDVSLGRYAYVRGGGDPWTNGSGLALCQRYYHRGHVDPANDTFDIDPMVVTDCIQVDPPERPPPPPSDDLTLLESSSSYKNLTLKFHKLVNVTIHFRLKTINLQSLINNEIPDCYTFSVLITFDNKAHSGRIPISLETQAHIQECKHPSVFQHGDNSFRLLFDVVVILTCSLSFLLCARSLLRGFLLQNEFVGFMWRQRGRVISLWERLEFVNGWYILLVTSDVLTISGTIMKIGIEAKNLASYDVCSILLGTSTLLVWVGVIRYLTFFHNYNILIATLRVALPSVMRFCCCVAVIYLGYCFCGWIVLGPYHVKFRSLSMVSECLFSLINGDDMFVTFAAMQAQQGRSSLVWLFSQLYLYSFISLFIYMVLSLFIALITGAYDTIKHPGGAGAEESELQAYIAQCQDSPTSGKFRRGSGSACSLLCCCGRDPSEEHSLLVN
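Agonist activity was taken from a 110 s kinetic Ca2+ dye read on the FDSS after pinning compounds onto TRPML1-DL cells. The cells were seeded at 1,500/well with Tet inducer, incubated about 16 h, then dye-loaded at room temperature.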
TRPML1 blocker = human mucolipin-1 channel inhibition; TRPML1-inducible cells, Ca2+ dye fluorescence, FDSS; active compounds read low; inhibition of EC80 agonist-evoked calcium signal; activity change, negative = inhibition, % (no concentration beside the values); hit rate 0.02% among 390,000; AID 624415; in the data active means activity change below about -50%; inconclusive means about -30% to -50%; inactive means above about -30%;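 further: stimulus is agonist 54-4 at its EC80 concentration; on the % scale 0 is the no-effect control and ±100 the full control effect; compound concentration not given in the record; the text of the record puts the active cut at -80%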
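Calcium fluorescence in TRPML1-DL cells induced overnight with Tet: a 110 s read after compound pin addition, then a 110 s antagonist read after challenge with 54-4 at 4 uM final (EC80).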
D2 ag = human D2 receptor agonism in beta-arrestin assay; P14416; DiscoveRx PathHunter D2 beta-arrestin, luminescence, 90 min; 100% = 57 uM dopamine signal; activation, % (no concentration beside the values); hit rate 0.084% among 360,000; in the data active = activation above about 40%; inconclusive = about 15% to 40%; inactive = below about 15%; further: compound concentration not given in the record; the text of the record calls up to 30% inactive
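DiscoveRx PathHunter D2 beta-arrestin cells (2,100/well) attached overnight, then compound-stimulated 90 min at 37 C in HBSS/10 mM HEPES/0.1% Tween-20 buffer; beta-galactosidase complementation read by luminescence after 1 h at ambient temperature. Dopamine 57 uM final (EC100) as control.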
An asterisk follows results filed as active; ? = inconclusive; nt = no result given; & = joins results of further samples; [ ] = remark or other dose.

entry	SMILES	TRPML1 agonist	D2 potentiator	PINK1 expr mod	D2 ag	TRPML1 blocker	Six1-Eya2 inh
1	CC(C)Oc1cc(O)c2c(=O)c(-c3ccc(O)cc3)coc2c1	-0.2	-7	3.9%	0.9	5	1
2	Cn1cccc1C(=O)NCC(c1ccco1)N1CCCCC1 (configuration not stated)	-0.5	-3	0.6%	-0.7	2	6
3	CC(C)(C)NC(=O)c1sccc1C(=O)O	0.6	-6	7.8%[38.3 µM]	-0.1	32	-1
4	CNc1nc(C)c(C(=O)OCC(=O)OC)s1	-1.0	6	1.6%	-2.1	5	-1
5	Clc1ccccc1/C=N/NC1=Nc2cccc3cccc1c23	3.0	-9	?	1.0	18	-9
6	CC1CN(C(=O)Cn2c(=O)oc3ccccc32)CC(C)O1 (configuration not stated)	-0.5	-5	-0.7%	-5.2	-8	8
7	O=C(CSc1n[nH]c(-c2ccncc2)n1)c1ccccc1	-0.1	-7	?	1.4	-2	-6
8	Cc1cc(NC(=O)CCC(=O)N(Cc2ccco2)C(C(=O)NC2CCCC2)c2ccccc2C)no1 (configuration not stated)	0.0	-20	-0.5%	-5.0	11	17
9	O=C(Cc1cccc(C(F)(F)F)c1)Nc1ccccc1N1CCCC1	1.1	-3	1.9%	-1.9	13	-16
10	Cc1onc(-c2ccccc2)c1C(=O)NCC(=O)Nc1cc(Cl)ccc1Cl	0.5	-16	0.8%	4.4	15	2
11	CCc1ccccc1NC(=O)CSc1ccsc1[N+](=O)[O-]	-0.7	-6	5.8%	-4.9	22	-20
12	Cn1cccc1C(=O)NCCc1ccc(Cl)cc1	-0.7	-15	1.5%	-2.4	-3	-3
13	Cc1ccc(C)c(N(CC(=O)NCc2ccco2)C(=O)CCC(=O)Nc2nccs2)c1	0.4	-2	0.9%	2.2	-11	0
14	Cc1cc(C)cc(NC(=O)c2oc3ccccc3c2COc2ccccc2)c1	1.5	-14	15%	0.9	13	19
15	CN1CCN(c2nc(-c3ccc(Cl)s3)cs2)CC1	1.9	-9	1.9%	0.4	1	1

An excerpt of these results, with values under each structure:
Order of values: TRPML1 agonist, D2 potentiator, PINK1 expr mod, D2 ag, TRPML1 blocker, Six1-Eya2 inh
(7) O=C(CSc1n[nH]c(-c2ccncc2)n1)c1ccccc1
→ -0.1, -7, ?, 1.4, -2, -6
(8) Cc1cc(NC(=O)CCC(=O)N(Cc2ccco2)C(C(=O)NC2CCCC2)c2ccccc2C)no1 (configuration not stated)
→ 0.0, -20, -0.5%, -5.0, 11, 17

Remaining list, next part.
entry	SMILES	TRPML1 agonist	D2 potentiator	PINK1 expr mod	D2 ag	TRPML1 blocker	Six1-Eya2 inh
16	Cc1cc(Cl)ccc1NC(=S)NCCC(c1ccccc1)c1ccccc1	1.5	-22	?	-1.1	-12	0
17	COc1ccccc1CNC(=O)C(=O)NCC1OCCN1S(=O)(=O)c1cccs1 (configuration not stated)	nt	-5	-0.2%	-6.6	nt	-1
18	CC1CCN(c2ccc3c(c2)S(=O)(=O)c2cccc(C(=O)NCc4cccc(F)c4)c2C3=O)CC1	?	5	-1.4%	2.2	1	4
19	CCOC(=O)c1cnc(SCC(=O)NCc2cccs2)nc1N	-0.4	-18	-1.8%[38.3 µM]	-0.9	-5	4
20	CCOC(=O)N1CCN(C(=O)COC(=O)c2ccc(N(C)C)cc2)CC1	3.3	4	-0.5%	2.1	16	-1
21	Clc1ccc(-c2noc(COc3ccccc3)n2)cc1	0.3	-8	0.3%	-0.9	-10	11
22	COc1ccc(CCNC(=O)CC(Cc2ccc(C)cc2)C(=O)O)cc1OC (configuration not stated)	1.1	-3	2.2%	-0.5	-18	0
23	CCN1C(=O)[C@H]2[C@@H](c3ccc(SC4CCCCC4)c(OC)c3)N[C@@](Cc3ccccc3)(C(=O)OC)[C@H]2C1=O	-0.2	-16	-0.2%	-4.0	-15	4
24	C=CCCC(=O)N1CCCC(Cc2cccc(Cl)c2)(C(=O)OCC)C1 (configuration not stated)	0.1	-1	2.6%	8.9	13	5
25	C[n+]1c2n(c3ccccc31)N=C(c1ccc(Br)cc1)CS2	0.2	-18	14%[38.3 µM]	-3.4	31	-5
26	CCOC(=O)C1CCN(C(=O)Nc2cc(Cl)cc(Cl)c2)CC1	0.7	-17	2.1%	-1.2	20	1
27	Nc1ccc2cc3ccccc3cc2c1	3.5	-10	10%	3.6	6	-4
28	CN(C)S(=O)(=O)c1cccc(-c2nnc(SCC(=O)NCCCCCC(=O)O)n2-c2ccc(F)cc2)c1	-0.2	4	7.2%	4.7	13	0
29	O=C(CON=C1c2ccccc2-c2ccccc21)NC12CC3CC(CC(C3)C1)C2	1.8	-29	?	-3.9	41	0
30	Cc1ccc(-c2cc(C(=O)Nc3ccncc3)c3ccccc3n2)cc1	-0.5	?	2.4%	5.9	-10	1
31	Clc1ccc(-c2cc3ccccc3[nH]2)cc1	0.7	5	0.7%	3.2	-3	-5
32	CC(C)CCOP(=O)(c1ccc(N(C)C)cc1)C(O)c1ccccc1 (configuration not stated)	-0.1	-6	-1.8%	-0.1	-16	1
33	CC1CCN(C(=O)COC(=O)[C@H](C)NS(=O)(=O)/C=C/c2ccccc2)CC1	0.6	10	1.3%	-4.6	-2	11
34	CN(C)S(=O)(=O)c1ccc(Cl)c(NC(=O)COC(=O)/C=C/c2ccc3ccccc3n2)c1	0.4	5	2.6%	1.6	25	10
35	Cc1nc(Cl)c(Cl)n1CCOc1ccccc1	1.2	2	-0.8%	4.0	15	-11
36	O=C(COCc1cc(-c2cccs2)on1)NCc1ccc(Cl)cc1	0.4	nt	0.1%	nt	4	nt
37	COc1ccc(Nc2nc(N)nc(CSc3nc(C)cc(C)n3)n2)cc1	-0.8	3	1.4%	-4.4	-15	-3
38	CCN(CC)C(=O)CSC1=Nc2ccccc2C2=NC(c3ccccc3)C(=O)N12 (configuration not stated)	-0.1	3	0.6%	-3.9	-6	6
39	COc1ccc(/C=C/C(=O)c2sc(-c3ccccc3)nc2C)cc1	-0.2	-4	6.8%	-2.5	-10	5
40	Cc1ccc(S(=O)(=O)N/N=C/c2cccc([N+](=O)[O-])c2)cc1	0.1	-24	0.3%	-6.5	23	11
41	C=C(C)CC(c1ccccc1)N(C(C)=O)c1ccco1 (configuration not stated)	0.5	-9	-0.8%	2.5	22	6
42	O=C(CCC(=O)N1CCc2ccccc21)Nc1ccccc1	-0.1	-10	0.9%	-2.2	6	1
43	COc1ccc(C(=O)CN2C(=O)N(c3cc(C)cc(C)c3)S(=O)(=O)c3ccccc32)cc1	0.3	nt	2.8%	nt	-7	nt
44	CC(=O)[C@H]1CC[C@H]2[C@@H]3CCC4=CC(=O)CC[C@]4(C)[C@H]3[C@H](O)C[C@]12C	0.7	-6	-0.2%	-4.1	11	0
45	CCN(CC(=O)Nc1ccccc1OC)C(=O)c1ccc(N(C)S(=O)(=O)c2ccc(C)cc2)cc1	-0.1	-3	-0.1%	-6.8	25	-1

An excerpt from above, limited to Six1-Eya2 inh:
| nr | compound | Six1-Eya2 inh |
| --- | --- | --- |
| 3 | CC(C)(C)NC(=O)c1sccc1C(=O)O | -1 |
| 4 | CNc1nc(C)c(C(=O)OCC(=O)OC)s1 | -1 |
| 5 | Clc1ccccc1/C=N/NC1=Nc2cccc3cccc1c23 | -9 |

(continued)
entry	SMILES	TRPML1 agonist	D2 potentiator	PINK1 expr mod	D2 ag	TRPML1 blocker	Six1-Eya2 inh
46	CSc1ccc(CN2C(=O)C(F)(F)Oc3c(C(C)=O)cccc32)cc1	1.7	-3	0.0%	8.6	nt	1
47	C=C(Cl)COc1cc(C)cc2oc(=O)cc(CC)c12	0.9	-14	1.7%	-3.4	17	5
48	COCc1cc(N2CCCC2)nc(-c2ccccc2)n1	-1.0	-1	1.0%	-4.3	-18	12
49	COc1ccc(CNC(=O)CN(C(=O)c2snc(C(N)=O)c2N)c2ccccc2F)cc1	1.1	-1	1.9%	-0.4	-13	1
50	COc1ccc(C(C)NC(=O)c2ccccc2Cl)cc1OC (configuration not stated)	0.5	-1	-1.4%	-0.4	-5	1
51	O=C(O)c1ccccc1C(=O)Nc1ccc(S(=O)(=O)NC2CCCCC2)cc1	0.5	-4	-0.7%	0.2	-19	6
52	Cc1nc(-c2ccc(F)cc2)c(CC(=O)Nc2cccc(S(=O)(=O)N3CCOCC3)c2)s1	1.5	15	-5.4%	6.2	8	-8
53	Cc1ccc(NC(=O)CN(C)C(=O)Cc2ccc(Cl)cc2Cl)cc1	0.8	-9	5.3%	0.9	9	3
54	CCC(=O)Nc1ccc2c(c1)Cc1cc(NC(=O)CC)ccc1-2	0.0	-4	2.4%	-2.6	10	-1
55	CC(C)(C)C1CCc2c(sc(NC(=O)CSc3nnc(-c4ccccc4)o3)c2C#N)C1 (configuration not stated)	-0.9	-16	5.6%	-5.5	-19	8
56	O=C(NNC(=S)Nc1ccc(F)cc1)[C@H]1C[C@@H]1c1ccccc1	1.5	-10	-1.5%	0.8	-15	0
57	CC(C)C[C@H](NC(=O)c1cc2cc(Cl)ccc2n1C)C(=O)N1CCC[C@H]1C(=O)O	nt	-19	0.8%	-1.2	nt	-1
58	S=C(Nc1cccnc1)NC1CCCC1	-0.4	-4	0.7%	-2.5	11	10
59	COc1ccc(NC(=O)CSc2nc3[nH]c(=O)[nH]c(=O)c3s2)cc1OC	1.1	-5	1.6%	-4.1	0	14
60	Cc1cc(N2CCCCC2)nc(SCC(=O)c2ccccc2)n1	0.4	-7	-2.7%	-4.1	-2	-5
61	CC1=C(C(=O)OCCNC(=O)c2ccccc2O)C(c2ccccc2[N+](=O)[O-])C(C(=O)OCC2CCCO2)=C(C)N1 (configuration not stated)	3.2	-31	3.0%	-2.2	-6	-9
62	Cc1ccc(NC(=O)c2cc(N3C(=O)CCC3=O)ccc2N2CCCCC2)cc1	1.0	0	1.9%	-4.7	-1	-7
63	Cc1ccc(NC(=O)CCNS(=O)(=O)c2ccc(Br)cc2)cc1S(=O)(=O)N1CCOCC1	-0.9	5	0.8%	-2.7	-2	-7
64	O=C(CCSc1nnc(-c2ccco2)o1)Nc1ccc(F)cc1	-0.6	1	-1.0%	-7.1	-16	13
65	CNC(=S)N(CCCN(C)C)Cc1cc2cc3c(cc2[nH]c1=O)OCCO3	-0.1	8	-0.1%	4.5	11	-2
66	Cc1c(C(=O)N2CCOCC2)c(S(=O)(=O)N2CCN(c3ccc(Cl)cc3)CC2)c(C)n1C	-0.6	-2	-0.6%	-2.5	-22	1
67	O=C(NC1CCCC1)C(c1cccnc1)N(C(=O)c1csnn1)c1ccccc1 (configuration not stated)	0.3	-5	-2.6%	6.8	5	9
68	COc1ccc2c(c1)OC(=O)CC2c1cc(OC)c(OC)c(OC)c1 (configuration not stated)	-0.9	-5	7.4%	-2.2	3	13
69	Cc1ccccc1CN1c2ccccc2-c2nc(SCC(=O)c3ccccc3)ncc2S1(=O)=O	0.8	nt	5.4%	nt	24	nt
70	CCCCN(C)CCCNC(=O)c1cn(CC)c2ccc(S(=O)(=O)N3CCc4ccccc4C3)cc2c1=O	0.6&-0.9	-20	-2.1%&1.2%	-3.1	-3&-13	-5
71	Cc1cc(C)nc(SCC(=O)NCc2ccco2)n1	-1.2	-6	1.5%	-2.4	6	0

Screens (PubChem)
